AID504770 – growth inhibitors of E. coli YBA685 in a screen for V. cholerae RctB (chromosome II replication) inhibitors; E. coli YBA685 rctB-dependent plasmid, OD600 growth, 3 h; stronger effect = lower value; z-score (test concentration not listed); 130,000 tested, 0.27% active; AID 504770;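 active = z-score under -2 on both plates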;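 also: wells of about 30 µL received 100 nL stock; score is relative to mean and SD of the test wells; the first replicate is given; strong numbers were not always called active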
CapD inh – CapD enzyme inhibition; purified CapD enzyme, fluorescence intensity read-out; stronger effect = lower value; some hits fall short of the stated cut; z-score (no concentration beside the values); 140,000 tested, 0.23% active; AID 492967;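 active = z-score under -4 in either of two replicates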;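 also: stock transfer was 100 nL into about 40 µL; score is relative to mean and spread of the plate; one replicate is shown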
* hit, by the source's call; x = no result given; & = joins results of further samples.

SMILES	AID504770	CapD inh
CCn1c(SCc2nc3ccccc3[nH]2)nc2cc(C(=O)OC)ccc2c1=O	2.25	-0.725
O=C(CSc1nnc(Cc2ccccc2)o1)N1CCCC1c1ccc2c(c1)OCCCO2 (centres undefined)	0.2	x
COC(=O)C1C(=O)NC(SCC(=O)Nc2cccc(Cl)c2C)=C(C#N)C1c1ccccc1Cl (centres undefined)	x	-0.185
Cc1ccc(Nc2cc(C(=O)N3CCCC3)c3ccccc3n2)cc1C	2.45	-1.52
CCCCn1c(C(C)NC(=O)COc2ccccc2)nc2ccccc21 (centres undefined)	-1.3	0.35
Cn1nc(-c2ccc(S(=O)(=O)N3CCCCC3)s2)cc1C(F)(F)F	-0.55	-0.185
CC(=O)CS(=O)(=O)c1ccc(C)cc1	x	0.23
COCCN1C(=O)C(=O)/C(=C(/O)c2ccccc2)C1c1cccc(F)c1 (centres undefined)	x	-0.605
N#CC1=C(SCC(=O)Nc2ccc(Br)cc2)NC(=O)C(C#N)C12CCC(c1ccccc1)CC2 (centres undefined)	x	0.235
O=C(NCc1nc(-c2ccc(Cl)cc2)no1)NC1CCCCC1	0.6	-0.38
O=C(O)Cc1coc2cc(O)ccc12	-0.6	x
C=CCN(CC=C)S(=O)(=O)c1ccc(/C(O)=C(/C#N)c2nc3ccccc3[nH]2)cc1	0.25	x
N#Cc1c(Cl)cccc1NC(=O)Nc1ccc(Cl)cc1	x	2.73
CCc1cc2c(NCCO)ncnc2s1	-0.8	2.94
CC(=O)SCC(=O)N=c1sc2cc(F)ccc2n1C	-3.35	0.58
Cc1c(C)c(C)c(COc2ccc(I)cc2)c(C)c1C	x	0.67
O=C(Cc1c(Cl)cccc1Cl)OCc1ccccn1	-0.5	x
CN(c1ccccc1)S(C)(=O)=O	1.45	-0.085&-0.08
COc1cccc(C(=O)NC(C)C(c2cccs2)N2CCN(C)CC2)c1 (centres undefined)	-0.35	x
COc1ccc(N/C=C/c2onc(-c3ccccc3Cl)c2C#N)cc1	x	-0.26
CC(C(=O)Nc1ccccc1)N1C(=O)c2ccccc2C1=O (centres undefined)	-0.45	x
CC1CCN(S(=O)(=O)c2ccc(NC(=O)/C=C/c3ccco3)cc2)CC1	0	-0.09
O=C(O)Cn1ccc2ccccc21	-0.95	x
Cc1cc(S(=O)(=O)N2CCN(Cc3ccccc3)CC2)c(C)cc1Cl	2.8	-0.875
Cc1c2cnn(CC(=O)N3CCc4ccccc43)c(=O)c2c(C)n1Cc1ccc(Cl)cc1	-0.25	0.365
(continued)
SMILES	AID504770	CapD inh
O=C(Nc1ccc(Oc2ncccn2)c(Cl)c1)c1cccc(C(F)(F)F)c1	x	-0.065
CC(=O)OC[C@H]1O[C@@H](Nc2ccc(C)cc2)[C@H](OC(C)=O)[C@@H](OC(C)=O)[C@@H]1OC(C)=O	-0.15	0.245
COC(=O)Nc1ccc(S(=O)(=O)N(CCO)CCO)cc1	-0.2	x
COc1ccc(CN2C(=O)c3cccnc3C2=O)cc1S(=O)(=O)N(C)Cc1ccco1	-0.2	0.23
CN1CCN(C(=O)/C(=C/c2ccc(N(C)C)cc2)NC(=O)c2ccccc2)CC1	-0.05	x
COc1ccc(OC)c(/C=C2/N=C(c3ccc(OC)c(Br)c3)OC2=O)c1	x	-0.515
O=C(COc1ccc(Cl)cc1Cl)Nc1ncccn1	-0.75	-0.055
CCCCc1nc2sc3c(N4CCCC4)ncnc3c2c2c1COC(C)(C)C2	x	2.75
CS(=O)(=O)N1CCc2cc(N)ccc21	x	0.17
O=C(CSc1ccc2nnc(-c3cccc(F)c3)n2n1)NCc1ccccc1	0.1	-1.1
CCOC(=O)[C@H]1C(=O)C[C@@](C)(O)[C@@H](C(=O)OCC)[C@@H]1c1ccccc1	x	0.77
CCOC(=O)c1ccc(NC(=O)c2sc(NC(=O)c3cc(OC)c(OC)c(OC)c3)c(C(=O)OCC)c2C)cc1	x	4.27
Fc1ccc(C(c2ccc(F)cc2)N2CCN(C/C=C/c3ccccc3)CC2)cc1	0.75	0.47&-0.36
N#Cc1c(SCc2ccccc2)nc2sccn12	0.05	0.1
O=C1Nc2ccccc2/C1=C/c1cn[nH]c1-c1ccccc1	-0.25	-2.78
O=C(CC1CC2CCC1C2)OCC(=O)c1ccc[nH]1 (centres undefined)	-2.15	x
CN(C)S(=O)(=O)Oc1ccccc1C(=O)Nc1ccc([N+](=O)[O-])cc1	x	-0.155
COC(=O)c1ccc(C)c(NC(=O)C(OC)c2ccccc2)c1 (centres undefined)	-1	0.015
O=C(CN1CCOCC1)Nc1ccc(Cl)c(NC(=O)c2ccc(Cl)cc2)c1	0.8	x
COc1ccc(C2CC(=O)c3cnn(-c4nc5ccccc5s4)c3C2)cc1 (centres undefined)	-0.2	0.765
O=C(Nc1cccc(Cl)c1)C(Cc1ccccc1)N1C(=O)C2C3c4ccccc4C(c4ccccc43)C2C1=O (centres undefined)	x	-0.16
COC(=O)C(C)N1C(=O)S/C(=C/c2ccc(F)cc2)C1=O (centres undefined)	-0.65	-1.87
COc1ccc(NC(=O)C(=O)NCCN2CCN(C(=O)c3ccc(Br)cc3)CC2)cc1	x	0.425
NS(=O)(=O)c1ccc(NC(=O)c2ccccc2C(=O)N2CCCCC2)cc1	-0.25	-0.34
O=C(Nc1ccc(F)cc1)c1cc(-c2cccs2)nc2ccccc12	x	0.605
Remaining list, next part.
SMILES	AID504770	CapD inh
COc1ccc(-c2onc(C)c2-c2cnn(-c3ccccc3)c2)c(O)c1	-1.7	x
CCOc1cc(C=C2C(=O)NC(=S)NC2=O)ccc1OC(=O)c1ccc(Cl)cc1	x	0.025
CCC(C)NC(=O)C1CCN(S(C)(=O)=O)CC1 (centres undefined)	-0.65	x
CC(NC1=CC(=O)OC12CCCCC2)c1ccccc1 (centres undefined)	-0.45	-0.575
O=C(NCCCN1CCOCC1)c1nn2c(c1Br)NC(c1cccs1)CC2C(F)(F)F (centres undefined)	x	0.29
O=S(=O)(NC1CCN(Cc2c(F)cccc2Cl)CC1)c1cccc2nonc12	-0.35	-0.35
C=CCn1cnnc1SCc1cc(F)ccc1OC	-0.4	x
Cn1cccc1Cc1nnc(SCC(=O)Nc2ccc3c(c2)OCO3)n1CCc1ccccc1	0	-0.96
O=C(CSc1nnc(-c2ccccc2)o1)Nc1nccs1	0.95	-0.68
Cc1ccccc1C(=O)OCC(=O)N(C)c1ccccc1	-1.2	x
CC(C)OC(=O)NC1CCN(S(=O)(=O)c2ccc(Cl)cc2)CC1	x	-0.695
COc1cc(/C=C/C(=O)NCC(=O)O)cc(Br)c1OC	-0.35	1.26
O=C(NNC(=O)c1ccc(CSc2ccc(C(F)(F)F)cn2)o1)c1csc(-c2cnccn2)n1	x	0.88
Cc1ccc(S(=O)(=O)N2CCN(C(=O)CSc3nnc(Cc4csc(C)n4)o3)CC2)cc1	-0.25	x
CCOC(=O)C(Cc1ccccc1)NC(=O)OCCCCc1ccc([N+](=O)[O-])cc1 (centres undefined)	x	-0.02
O=C(CC1Nc2ccccc2NC1=O)Nc1ccccc1NC(=O)CC1Nc2ccccc2NC1=O (centres undefined)	1.35	-0.015
Cn1c(=O)c(=O)n(C)c2cc(S(=O)(=O)CCC(=O)NCc3ccccc3Cl)ccc21	2.6	2.08
C[C@@]12CCC3[C@@H]4CCC[C@@](C)(C(=O)O)[C@H]4CC[C@]3(C/C1=N/O)C2 (some centres undefined)	-0.9	0.135
COc1ccc(/C=C(\C#N)C(=O)Nc2nc(OC)cc(OC)n2)cc1	-0.95	x
COC(=O)c1sccc1NC(=S)N(C)CCC#N	-0.15	0.045
Cn1c(=O)c2c(nc(Cl)n2CC(=O)c2ccccc2)n(C)c1=O	x	0.6
CC(=O)N1CCC(N(c2ccc3c(c2)CCN3C(C)=O)S(=O)(=O)c2ccc(Cl)cc2)CC1	x	-0.345
O=C1c2ccccc2C2N1CCCN2C(=O)c1sc2ccccc2c1Cl (centres undefined)	x	0.39
COc1ccc(C(=O)C2CCNCC2)cc1	x	0.205
CCCCc1c(O)nc2n(c1=O)CCCS2	-0.25	-0.105

One compound at a time, from the list above. Order of values: AID504770	CapD inh
Entry for COc1ccc(N/C=C/c2onc(-c3ccccc3Cl)c2C#N)cc1 → x	-0.26
Entry for COc1ccc(C2CC(=O)c3cnn(-c4nc5ccccc5s4)c3C2)cc1 (centres undefined) → -0.2	0.765
Entry for CC(=O)N1CCC(N(c2ccc3c(c2)CCN3C(C)=O)S(=O)(=O)c2ccc(Cl)cc2)CC1 → x	-0.345
Entry for CC(=O)CS(=O)(=O)c1ccc(C)cc1 → x	0.23
Entry for COC(=O)C1C(=O)NC(SCC(=O)Nc2cccc(Cl)c2C)=C(C#N)C1c1ccccc1Cl (centres undefined) → x	-0.185

Random excerpt: 7 compounds from above
SMILES	AID504770	CapD inh
C=CCn1cnnc1SCc1cc(F)ccc1OC	-0.4	x
Cc1ccccc1C(=O)OCC(=O)N(C)c1ccccc1	-1.2	x
CCOc1cc(C=C2C(=O)NC(=S)NC2=O)ccc1OC(=O)c1ccc(Cl)cc1	x	0.025
O=C1c2ccccc2C2N1CCCN2C(=O)c1sc2ccccc2c1Cl (centres undefined)	x	0.39
CC(C)OC(=O)NC1CCN(S(=O)(=O)c2ccc(Cl)cc2)CC1	x	-0.695
CC(NC1=CC(=O)OC12CCCCC2)c1ccccc1 (centres undefined)	-0.45	-0.575
CCCCc1c(O)nc2n(c1=O)CCCS2	-0.25	-0.105

2 of the compounds above, bar-delimited:
SMILES | AID504770 | CapD inh
COc1ccc(C(=O)C2CCNCC2)cc1 | x | 0.205
CCCCc1c(O)nc2n(c1=O)CCCS2 | -0.25 | -0.105

The list goes on:
SMILES	AID504770	CapD inh
COC(=O)c1ccccc1N=Nc1c(N)[nH]n(-c2ccccc2)c1=O	0.7	x
Clc1ccc(OCc2nc(CSc3cccs3)no2)c(Cl)c1	0.05	9.79
O=C1/C(=N/NC(=O)C2CC2)c2cccc3cccc1c23	0.2	x
CCOC(=O)N1CCC(NC(=O)C2CCCCN2S(=O)(=O)c2ccc(F)cc2)CC1 (centres undefined)	0.2	1.76
COc1ccc(NC(=O)Nc2ccc(C(=O)N3CCOCC3)cc2)cc1OC	1.2	0.995
CCOC(=O)COc1nc(C)c(Br)c(OC)n1	0.2	x
CS(=O)(=O)N(CC(=O)N1CCCCC1)Cc1ccccc1	-0.35	x
Cc1ccc(S(=O)(=O)CCSc2n[nH]c(=O)n2-c2ccccc2)cc1	-1.15	0.445
CC(C)(C)C(=O)CSc1nc2ccccc2[nH]1	-0.65	x
O=S(=O)(c1ccc(Cl)c(Cl)c1)N1CCN(c2ncccc2C(F)(F)F)CC1	x	-0.07
Cc1ccc(N2C(=O)CC(=O)NC2=S)cc1	-0.25	0.625
COc1cc2c(cc1OC)-c1nnnn1C(C)(C)C2	-0.45	0.41
COc1ccc(CCN2CC(O)=C(c3nc4ccccc4s3)C2=N)cc1OC	0.1	8.91
O=C1CCCN2N=C(SCC(=O)NCCc3ccccc3)SC2=N1	-0.9	-0.825
COc1ccc(/C=N/NC(=O)c2ccoc2C)cc1CN1CCN(c2ccc(F)cc2)CC1	0.7	-0.39
O=C1C2C3C=CC(CC3)C2C(=O)N1c1cc(C(F)(F)F)ccc1Cl (centres undefined)	x	0.955
COc1ccc(C(=O)Nc2ccc(S(=O)(=O)N3CCC(C)CC3)cc2)cc1	x	-0.27
CCOC(=O)C(CSC(=O)c1ccc([N+](=O)[O-])cc1)NC(=O)OC(C)(C)C (centres undefined)	x	-0.95
O=C(COc1ccc2oc(-c3ccco3)cc(=O)c2c1)OC1CCCCC1	-0.55	9.29
COc1ccc(Cl)cc1S(=O)(=O)N1CCN=C1c1ccccc1	0.15	0.415
COc1ccc(C2=NN(S(=O)(=O)c3ccccc3)C(c3ccc(C)cc3)C2)cc1OC (centres undefined)	x	-0.12
CCOc1ccc(C2c3c(oc4ccccc4c3=O)C(=O)N2CCCN2CCOCC2)cc1 (centres undefined)	1.3	-0.4
COc1ccccc1N1CCN(C(=O)c2sc3ncn(CC(=O)Nc4ccc(C)c(Cl)c4)c(=O)c3c2C)CC1	x	-2.06
O=C(NCCN1CCOCC1)c1ccc2c(c1)OCCO2	0.1	x
Cn1ccnc1C(=O)Oc1ccccc1F	-0.7	-0.225
(listing goes on)
SMILES	AID504770	CapD inh
COC(=O)c1ccc(NC(=O)Nc2ccccc2)cc1	-1.2	0
CCc1ccc(N2C(=O)CN(Cc3ccccc3)C2=S)cc1	-0.15	0.25
C#CCn1c(O)c(N=NC(=O)c2ccncc2)c2cc(Br)ccc21	-1.8	x
CCc1nc2sc3c(c2c(=O)o1)CCCC3	x	-0.075
CCC(C)(C)NC(=O)COc1ccc2c(C)cc(=O)oc2c1	-0.7	92.1
CC1(C)OC(=O)C(=Cc2cc3ccccc3o2)C(=O)O1	-0.35	0.36
CSc1cccc(NC(=O)N(Cc2ccccc2)C(=O)CC#N)c1	-0.35	-0.03
COc1ccc(NC(=O)CSc2nc3ccccc3nc2Cc2cccc([N+](=O)[O-])c2)cc1Cl	x	0.68
N/C(=N\c1nc2ccccc2o1)NC(=O)C(Sc1ccccc1)c1ccccc1 (centres undefined)	2.1	x
Cc1cc(C)nc(N2CCN(C(=O)CCC(=O)NCc3ccc(Cl)cc3)CC2)n1	x	0.65
O=C(c1c(Cl)nc2sccn12)N1CCN(Cc2ccccc2)CC1	0.15	0.83
O=C(O)CNC(=O)c1ccc(NS(=O)(=O)c2ccc(Br)cc2)cc1	0.1	x
Fc1ccc(C(c2nnc(-c3ccccc3)o2)N2CCN(Cc3ccccc3)CC2)cc1 (centres undefined)	-0.85	-0.125
COc1ccc(O)c(/C=C(\C#N)C(N)=O)c1	-1.1	x
CC(=O)Nc1nc(C2CC2)cc(-c2ccccc2)c1C#N	-0.45	0.735
COc1ccc(Cl)cc1C(=O)On1c(-c2ccc(Br)cc2)nc2ccccc2c1=O	x	-0.155
FC(F)(F)c1cccc(Oc2ncc(-c3ccc(Cl)cc3)cn2)c1	x	-0.165
CCOC(=O)NC(=S)Nc1ccc(C(C)(C)C)cc1NC(=S)NC(=O)OCC	x	-0.37
CCS(=O)(=O)c1ccsc1S(=O)(=O)CC	-0.6	0.015

An excerpt; the hit share may differ from the screen's.
